StopGo FLuc – lowers the firefly signal of an FMDV 2A StopGo reporter. HEK cells with a luciferase reporter of 2A StopGo recoding. Potency, µM (highest dose often 57.5 µM), inactives show at the highest dose signal change, negative = less light. actives 0.23% (n = 120,000); active = well fitted falling curve with a large enough effect; inconclusive = small, poorly fitted or top-dose-only effect; inactive = no such curve, though single readings can be large or run the other way; note: nearly all actives have a fitted effect of over 60% in size; overnight with compound
StopGo RLuc – lowers the Renilla signal of an FMDV 2A StopGo reporter. HEK cells with a luciferase reporter of 2A StopGo recoding. Potency, µM (top dose mostly 57.5 µM), inactives show at the top dose signal change, negative = less light. actives 0.32% (n = 120,000); active means well fitted falling curve with a large enough effect; inconclusive means small, poorly fitted or top-dose-only effect; inactive means no such curve, though single readings can be large or run the other way; note: nearly all actives have a fitted effect of over 55% in size; overnight with compound
The depositor's hits bear a star; ? = inconclusive; & = joins results of further samples; [ ] = dose if it differs, or a comment. % is set by controls: 0 for no effect and ±100 for the full control effect; potency is the fitted concentration of half-maximal effect.

Every second line gives: StopGo FLuc | StopGo RLuc
> CCc1ccc(NC(=O)C2CCN(S(=O)(=O)c3cccc(-c4noc(C)n4)c3)CC2)cc1
→ ? | ?
> Cc1ccc(C(NC(=O)c2ccncc2)c2ccccc2)cc1C (stereo not given)
→ -4% | -8%[1.06 µM]
> CCc1ccc(NCc2cc3cc4c(cc3n(CC(=O)Nc3ccc(Cl)cc3)c2=O)OCO4)cc1
→ 15% | 3%
> COCCN(Cc1cc2cc(C)ccc2[nH]c1=O)C(=O)c1cccnc1
→ -2% | -14%
> CC(C)(C)C1=CC(=Cc2cc(C(C)(C)C)c(O)c(C(C)(C)C)c2)C=C(C(C)(C)C)C1=O
→ 7% | 30%
> Cn1c(=O)n(C/C=C/c2ccccc2)c(=O)c2c1nc1n2CCN1c1ccccc1
→ -2% | 4%
> COc1ccc(NC(=O)CSc2nc3c(oc4ccccc43)c(=O)n2-c2ccc(C)c(C)c2)cc1
→ -17% | -14%
> Cc1ccc(-c2nc3c(c(SCc4ccc(Br)cc4)n2)Cc2c(CO)cnc(C)c2O3)cc1
→ -19% | -10%
> CCOC(=O)c1ccc(NC(=O)Cc2coc3cc(C)cc(C)c23)cc1
→ -7% | 36%[activator]
> CCOCCCNC(=O)Cn1ncc2c([nH]c3ccc(C)cc32)c1=O
→ 49%[activator] | 26%

Reprinted at random: six compounds from above, in no set order.
Every second line gives: StopGo FLuc | StopGo RLuc
> Cc1ccc(C(NC(=O)c2ccncc2)c2ccccc2)cc1C (stereo not given)
→ -4% | -8%[1.06 µM]
> COCCN(Cc1cc2cc(C)ccc2[nH]c1=O)C(=O)c1cccnc1
→ -2% | -14%
> CCOCCCNC(=O)Cn1ncc2c([nH]c3ccc(C)cc32)c1=O
→ 49%[activator] | 26%
> CCOC(=O)c1ccc(NC(=O)Cc2coc3cc(C)cc(C)c23)cc1
→ -7% | 36%[activator]
> COc1ccc(NC(=O)CSc2nc3c(oc4ccccc43)c(=O)n2-c2ccc(C)c(C)c2)cc1
→ -17% | -14%
> Cn1c(=O)n(C/C=C/c2ccccc2)c(=O)c2c1nc1n2CCN1c1ccccc1
→ -2% | 4%

The listing picks up, repeating the 2 entries before the break.
Every second line gives: StopGo FLuc | StopGo RLuc
> CCOC(=O)c1ccc(NC(=O)Cc2coc3cc(C)cc(C)c23)cc1
→ -7% | 36%[activator]
> CCOCCCNC(=O)Cn1ncc2c([nH]c3ccc(C)cc32)c1=O
→ 49%[activator] | 26%
> O=C(CSc1oc(-c2ccc(F)cc2)nc1S(=O)(=O)c1ccc(Br)cc1)NC1CCCCC1
→ -17% | -4%
> O=C(O)CN(CCc1ccccc1)CC(=O)O
→ 5% | -4%
> O=C(CCCn1c(=O)c2cccn2c2ccccc21)NCCc1ccc(Cl)cc1
→ -24% | 26%
> CC(=O)c1ccc(C(=O)N(CCCN(C)C)c2nc3c(C)c(C)ccc3s2)cc1
→ -9% | -6%
> Fc1ccccc1OCc1nnc(-c2ccccc2)o1
→ 202%[activator] | 38%[activator]
> Cc1ccc(C(=O)Nc2cccc(O)c2)cc1S(=O)(=O)N1CCCCCC1
→ 138%[activator] | ?
> CCCOc1cccc(C2c3c(oc4ccc(F)cc4c3=O)C(=O)N2c2nc(C)c(C(C)=O)s2)c1 (stereo not given)
→ -13% | 17%
> O=C(Sc1ccc(Cl)cc1)c1ccccc1F
→ -1% | -24%
> CC(C)CNC(=O)CN(c1ccc(Cl)c(C(F)(F)F)c1)S(C)(=O)=O
→ -3% | 32%[activator]
> CCCCCCOc1ccc(-c2nc3ccc(Br)cc3c(=O)o2)cc1
→ -8% | 4%

The list continues.
Every second line gives: StopGo FLuc | StopGo RLuc
> COc1ccc(-n2c(CCC(=O)O)ccc2-c2ccccc2)c(OC)c1
→ 88%[activator] | -16%
> CSc1ccc(CCNC(=O)CCc2nnc3ccc(NCc4ccc(Cl)cc4)nn23)cc1
→ -2% | -4%
> Cn1c(/C=C/c2c[nH]c3ccccc23)nc2ccccc2c1=O
→ 203%[activator] | 8%
> Cc1cccc(NC(=O)N[C@@H](CC(C)C)C(=O)O)c1
→ 8% | 14%
> CCc1ccc(-n2c(CCC(=O)O)ccc2-c2ccc(F)cc2)cc1
→ 21% | -12%
> CCNc1nc(NC(C)(C)C)nc(Oc2ccc(=O)n(-c3ccccc3)n2)n1
→ -17% | -14%
> CCNC(=O)c1cccc(NC(=O)c2cccc(OCc3c(C)noc3C)c2)c1
→ ? | ?
> Cc1cccc(OC(C)C(=O)Nc2nonc2-c2ccc(Br)cc2)c1C (stereo not given)
→ -8% | 3%
> CC1CCN(C(=O)C2CCN(C(=O)c3cc4ccccc4n3C)CC2)CC1
→ -18% | -18%
> COc1ccc(C2C(=O)N(C3CCC(C)CC3)CC(=O)N2CCC2=CCCCC2)cc1OC (stereo not given)
→ -15% | 0%

Additional compounds:
Every second line gives: StopGo FLuc | StopGo RLuc
> COc1ccc(Cl)cc1NC(=O)CN(c1cccc(C)c1C)S(C)(=O)=O
→ -5% | 0%
> Cc1ccc(NC(=O)C2CCN(C(=O)c3cnn(-c4ccccc4)c3-n3cccc3)CC2)cc1C
→ -22% | -28%
> CCOc1ccc(Nc2ncnc3c2cnn3-c2ccc(F)cc2)cc1
→ 51%[activator] | -1%
> N#C/C(=C\c1ccc(-c2ccccc2Cl)o1)c1ccccc1
→ 196%[activator] | 9%
> COc1ccccc1-c1c(C(F)(F)F)oc2cc(OCC(N)=O)ccc2c1=O
→ 0% | -6%
> CC1(C)CC(=O)c2cc(C#N)c(=O)n(-c3cccc(Cl)c3)c2C1
→ 111%[activator] | 2%
> COc1cc(OC)c(NS(=O)(=O)c2c(C)nc3sc(C)cn3c2=O)cc1Cl
→ ? | 25%
> Cc1ccc2c(CN3CCC4(CC3)OCCO4)cc(=O)oc2c1
→ 169%[activator] | 42%[activator]
> CCN(CC)C(=S)SCC(=O)NC(=O)NC1CCCCC1
→ 63%[activator] | 43%[activator]
> CC(=O)Nc1ccc(NS(=O)(=O)c2ccc3[nH]c4c(c3c2)CCCCC4)cc1
→ 9% | 312%[activator]

Further structures:
Every second line gives: StopGo FLuc | StopGo RLuc
> Cc1cccc(CNC(=O)Cn2nc(C)n3c(cc4cc(F)ccc43)c2=O)c1
→ 16% | 11%
> COc1cccc(N2C(=O)CSC23C(=O)N(CC(=O)Nc2cc(C)ccc2C)c2ccccc23)c1 (stereo not given)
→ -18% | 0%
> Cc1ccc(-c2cc3c(N4CCN(c5cc(C)ccc5C)CC4)nccn3n2)cc1
→ 48%[activator] | -7%
> O=c1c(-c2cc3ccccc3o2)coc2ccccc12
→ 250%[activator] | 4%
> CC(C)Nc1oc(-c2ccco2)nc1S(=O)(=O)c1ccc2c(c1)OCCO2
→ 8% | 302%[activator]
> N#Cc1nc(-c2ccco2)oc1N1CCN(C(=O)NC2CC2)CC1
→ 10% | 1%
> CC(=O)N/N=C/c1ccc([N+](=O)[O-])o1
→ 26%[11.5 µM] | -7%
> CCOc1ccc(NC(=O)CN2C(=O)C(c3ccccc3)=NC23CCC(C)CC3)cc1 (stereo not given)
→ -28% | -9%
> Cc1cccc(C)c1NS(=O)(=O)c1ccc2c(c1)[C@H]1C=CC[C@H]1[C@@H](c1ccc(Cl)cc1)N2
→ -15% | -11%
> Cc1ccc(CCNC(=O)c2c(C)oc3nc(C)nc(N4CCOCC4)c23)cc1
→ -6% | 0%

Record cards, from the list above. Values in the order: StopGo FLuc	StopGo RLuc
`CC(C)Nc1oc(-c2ccco2)nc1S(=O)(=O)c1ccc2c(c1)OCCO2` as listed: 8%	302%[activator]
`COc1cccc(N2C(=O)CSC23C(=O)N(CC(=O)Nc2cc(C)ccc2C)c2ccccc23)c1` (stereo not given) as listed: -18%	0%

Continued:
Every second line gives: StopGo FLuc | StopGo RLuc
> O=[N+]([O-])c1ccc(Oc2ccc(-c3ccccc3)cc2)c2ccncc12
→ -11% | ?
> Cc1cc(=O)oc2cc(OCC(=O)NCc3ccccn3)c(Cl)cc12
→ -1% | -4%
> Cc1ccc(C(=O)Nc2cccc(C(=O)O)c2)cc1S(=O)(=O)N1CCCC1
→ 10%&49% | -3%&-11%
> Cc1cccnc1NC(=O)Cc1nc(-c2ccccc2)oc1C
→ 24% | 7%
> O=C1NC(c2ccco2)Nc2sc3c(c21)CCN(Cc1ccccc1)C3 (stereo not given)
→ 9% | -7%
> Cc1c(C(=O)N(Cc2ccco2)C2CC2)[nH]c2c1C(=O)CC(C)(C)C2
→ -5% | 28%
> COc1ccc(C)cc1NC(=O)CSc1nc(=O)n(Cc2cccnc2)c2c1CCC2
→ 2% | 78%[activator]
> O=c1[nH]c2ccccc2c(-c2ccccc2)c1Sc1nc2ccccc2s1
→ -1% | 234%[activator]
> CC(C)c1noc(-c2ccccc2OCC(=O)Nc2ccc([N+](=O)[O-])cc2)n1
→ -10% | 5%
> CCOc1cccc(C(=O)NCc2nc(-c3cccs3)no2)c1
→ -4% | -4%

(listing goes on)
Every second line gives: StopGo FLuc | StopGo RLuc
> O=C(CSc1ncc(-c2ccc(Br)cc2)o1)N1CCCCC1
→ 77%[activator] | -8%
> Cc1cccc(C)c1NS(=O)(=O)c1ccc(-c2cnc(C3CC3)o2)cc1
→ ? | ?
> COc1ccc(NC(=O)c2cccn2-c2nnc(N3CCCCC3)s2)cc1
→ 79%[activator] | 35%[activator]
> COc1cccc(CNC(=O)CCS(=O)(=O)c2ccc3c(c2)CC(C)N3C(=O)C2CC2)c1 (stereo not given)
→ -14% | -15%
> COc1ccc(-c2ccc(NS(=O)(=O)c3ccc(OC)c(OC)c3)cc2)nn1
→ 21% | 291%[activator]
> Cc1oc2c(c(C)cc3oc(=O)c(CC(=O)NCc4ccccc4)c(C)c32)c1C
→ -12% | -13%
> O=C1/C(=C/c2cccc3ccccc23)Cc2ccccc21
→ 204%[activator] | 190%[activator]
> CSc1ccc(C(C)NC(=O)Cc2cccc(F)c2)cc1 (stereo not given)
→ -2% | 12%
> Cc1cc(C)n(-c2nc3cc(Cl)c(Cl)cc3nc2Nc2ccc(F)cc2C)n1
→ -9% | -8%
> O=C(CC(c1cccs1)N1Cc2ccccc2C1=O)Nc1ccccc1F (stereo not given)
→ 4% | 0%

New compounds follow:
Every second line gives: StopGo FLuc | StopGo RLuc
> CCN(CC)CCSc1c(C(C)C)cnc2c1c(=O)n(C)c(=O)n2C
→ -19% | -13%
> OCCNCc1ccc(-c2ccccc2)o1
→ 5% | -5%
> CC(Oc1ccc(Cl)cc1)C(=O)NC(C)c1ccc2ccccc2c1 (stereo not given)
→ 4% | 3%
> Cc1ccc2nc(C)c(C(=O)/C=C/c3ccccc3)c(-c3ccccc3)c2c1
→ ? | ?
> CCN1CCN(C(=O)c2ccc3c(c2)N(Cc2ccccc2)C(=O)c2ccccc2S3=O)CC1 (stereo not given)
→ 5% | 20%
> COc1ccc(OC)c(NC(=O)CN(C)S(=O)(=O)c2ccc3[nH]c4c(c3c2)CCCC4)c1
→ -13% | 9%
> O=C(Nc1ccc(S(=O)(=O)Nc2cnc3ccccc3n2)cc1)c1ccc(Oc2ccccc2)cc1
→ 8% | 51%[activator]
> CCOc1cc(CNC(=O)c2ncoc2-c2ccc(C)s2)cc(OCC)c1OCC
→ -4% | 3%
> O=C(Nc1ccccc1Cl)c1cc2c(-c3ccccc3)nn(-c3ccccc3)c2s1
→ -7% | -6%
> O=C1CCCc2cc(S(=O)(=O)N3CCC(C(=O)N4CCOCC4)CC3)ccc2N1
→ 7% | -1%

Quoted from the listing:
CC(=O)Nc1ccc(NS(=O)(=O)c2ccc3[nH]c4c(c3c2)CCCCC4)cc1 @ StopGo RLuc = 312%[activator]
COc1ccc(C)cc1NC(=O)CSc1nc(=O)n(Cc2cccnc2)c2c1CCC2 @ StopGo RLuc = 78%[activator]
CCOc1ccc(NC(=O)CN2C(=O)C(c3ccccc3)=NC23CCC(C)CC3)cc1 (stereo not given) @ StopGo FLuc = -28%
COc1ccccc1-c1c(C(F)(F)F)oc2cc(OCC(N)=O)ccc2c1=O @ StopGo RLuc = -6%

Next records follow.
Every second line gives: StopGo FLuc | StopGo RLuc
> CC(C)Oc1ccccc1C(C)NC(=O)Cc1c[nH]c2ccccc12 (stereo not given)
→ -13% | 67%[activator]
> COc1ccc(N2C(=O)c3cc4occc4n3CC2(C)C(=O)NC2CCCCCC2)cc1OC (stereo not given)
→ -6% | 0%
> N#Cc1ccccc1S(=O)(=O)N1CCC(Oc2ccc(-n3cnnn3)cc2)CC1
→ -35% | -18%
> COc1ccccc1CNC(=O)c1ccc2c(c1)sc1nc(-c3ccc(F)cc3)cn12
→ 29% | -9%
> COC(=O)COc1ccc2c(=O)c(-c3ccccc3)c(C)oc2c1
→ 26% | 4%
> COc1ccc(Oc2c(C)oc3cc(OCC(N)=O)ccc3c2=O)cc1
→ 16% | 10%

Screening data as filed in PubChem BioAssay.
